High-throughput results (PubChem)
BJeLR viab HTS = BJeLR cell viability reduction | BJeLR fibroblasts viability, CellTiterGlo ATP luminescence, 48 h; HRASV12, hTERT and SV40 LT/ST transformed | viability loss activity score, % (no concentration beside the values) | 30,000 compounds, 0.64% hits | AID 2275; in the data active = viability loss activity score above about 50%; about a fifth of its hits are not listed in these tables;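 also: higher score means fewer live cells and less ATP luminescence; stock transfer was 50 or 100 nL into about 30 µL; 0% = vehicle wells and 100% = a reference killing control; one replicate is shown; the record names a cut of 85%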
A1 inh = inhibitors of A1; MEF A1-2A-BIM cells, caspase-Glo luminescence, 3 h; percent of clofoctol signal, DMSO as zero; caspase activation, % (no concentration beside the values); 21,000 compounds, 0.51% hits; AID 2241;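 active = most replicate scores above 10, or exactly half above 10 with mean activity above 10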;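 also: effector caspase 3 and 7 activity cleaving a DEVD luciferin substrate; 50 nL library stock added to about 30 µL; numbers are from one replicate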
* hit, by the source's call; nt = no result given; & = joins results of further samples; ! = not active in a repeat.

Every second line gives: BJeLR viab HTS | A1 inh
C[C@@H]1CN([C@H](C)CO)C(=O)c2cc(NS(=O)(=O)c3ccc(Cl)cc3)ccc2O[C@@H]1CN(C)Cc1ccc2c(c1)OCO2
    1.4 | 0.8
COc1ccc(CC(=O)NC2CCCCC2)cc1OC
    10.5 | 0.0
C[C@H](CO)N1C[C@H](C)[C@@H](CN(C)S(=O)(=O)c2ccc(Cl)cc2)Oc2c(NC(=O)Nc3ccccc3)cccc2C1=O
    2.1 | nt
OC(CN1CCNCC1)Cn1c2ccc(Br)cc2c2cc(Br)ccc21 (stereo not drawn)
    8.4&18.5 | 16.0*!
CCCCc1ccc2nc(NC(=O)OC)[nH]c2c1
    66.5* | -2.5
CCOC(=O)C(C)N1C(=O)S/C(=C/c2ccc(-c3ccccc3C(=O)O)o2)C1=O (stereo not drawn)
    -2.8 | 0.6
Cc1ccc(S(=O)(=O)Nc2cccc3c2O[C@@H](CN(C)C(=O)Nc2ccc(F)cc2)[C@H](C)CN([C@H](C)CO)C3=O)cc1
    10.8 | nt
COc1ccc2nc3sc(C(=O)N(C)c4cccc(C(F)(F)F)c4)cc3cc2c1
    1.7 | nt
O=C(NCC1CN(Cc2ccccc2)CCO1)c1ccc(N2CCOCC2)nc1 (stereo not drawn)
    -1.3 | -0.4
NNC(=O)CNC(=O)c1ccccc1
    -3.1 | nt
OCCNC(=S)Nc1ccccc1
    1.1 | -0.4
COc1ccc(CCNC(=O)COc2ccc3c(=O)c(-c4ccccc4)coc3c2)cc1OC
    2.4 | 0.2
N#CC1=C(N)OC(C2CC2)=C(C#N)C1c1ccccc1Cl (stereo not drawn)
    -0.1 | 0.9
COc1ccc(CN(C)C[C@@H]2Oc3ccc(NS(=O)(=O)c4ccc(Cl)cc4)cc3C(=O)N([C@@H](C)CO)C[C@H]2C)cc1
    0.4 | -0.8
CCOC(=O)COc1ccc(C23CC4CC(CC(C4)C2)C3)cc1
    -2.6 | 0.1
COc1ccccc1CNC(=S)N(C)C
    -1.4 | nt
S=C(Nc1ccc(Cl)cc1Cl)NC(Cn1ccnc1)c1ccccc1 (stereo not drawn)
    -3.0 | 0.0
CNC[C@H]1Oc2ccc(NC(=O)Cc3ccccc3)cc2C(=O)N([C@@H](C)CO)C[C@@H]1C
    -4.6 | -0.7
Cc1ccc(S(=O)(=O)N(C)C[C@@H]2Oc3ccc(NC(=O)Nc4ccc(C(F)(F)F)cc4)cc3C(=O)N([C@@H](C)CO)C[C@@H]2C)cc1
    4.1 | 0.5
CCn1c(COc2cccc3cccnc23)nnc1SCC(=O)OC
    1.8 | nt
COc1ccc(NC(=O)Nc2cccc3c2O[C@@H](CN(C)S(=O)(=O)c2ccc(F)cc2)[C@@H](C)CN([C@H](C)CO)C3=O)cc1
    0.9 | nt
O=C(CSCc1ccccc1)Nc1ccc(-c2nc3cccnc3s2)cc1
    -1.1 | -2.1
Cc1noc(C)c1S(=O)(=O)Nc1ccc2c(c1)C(=O)N([C@@H](C)CO)C[C@@H](C)[C@@H](CN(C)C(=O)Nc1ccc(F)cc1)O2
    3.5 | 0.5
C[C@@H]1CN([C@H](C)CO)C(=O)c2cccc(NS(=O)(=O)c3ccccc3)c2O[C@@H]1CN(C)C
    -2.6 | nt
C=C(C(=O)O[C@H]1C/C=C(/C)C[C@H](O)[C@H]2[C@H](C)C(=O)O[C@@H]2/C=C\1C)[C@@H]1CCC(=C)[C@@H]2C[C@H](O[C@@H]3O[C@H](CO[C@H]4OC[C@](O)(CO)[C@H]4O)[C@@H](O)[C@H](O)[C@H]3O)C(=C)[C@@H]2C1
    3.6 | -0.4
CC(C)C(C(=O)OC1CSCC1NC(=O)c1ccccc1)N1C(=O)c2ccccc2C1=O (stereo not drawn)
    -0.5 | 0.5
O=C(Nc1sc2c(c1C(=O)N1CCOCC1)CCCCC2)c1ccccc1
    3.8 | -0.1
Cc1cc(C(=O)Nc2cccc3c2O[C@@H](CN(C)C)[C@H](C)CN([C@@H](C)CO)C3=O)n(C)n1
    -1.0 | nt
Cc1c(Br)sc2sc(-c3ccnc(SCC(=O)NC(C)C)n3)c(C)c12
    24.4 | 2.0
COc1ccc(S(=O)(=O)N(C)C[C@@H]2Oc3ccc(NC(=O)c4ccncc4)cc3C(=O)N([C@H](C)CO)C[C@H]2C)cc1
    1.1 | 0.3

Some of these compounds in order of the A1 inh value, largest number first:
compound	A1 inh
C[C@@H]1CN([C@H](C)CO)C(=O)c2cc(NS(=O)(=O)c3ccc(Cl)cc3)ccc2O[C@@H]1CN(C)Cc1ccc2c(c1)OCO2	0.8
Cc1ccc(S(=O)(=O)N(C)C[C@@H]2Oc3ccc(NC(=O)Nc4ccc(C(F)(F)F)cc4)cc3C(=O)N([C@@H](C)CO)C[C@@H]2C)cc1	0.5
COc1ccc(S(=O)(=O)N(C)C[C@@H]2Oc3ccc(NC(=O)c4ccncc4)cc3C(=O)N([C@H](C)CO)C[C@H]2C)cc1	0.3
COc1ccc(CC(=O)NC2CCCCC2)cc1OC	0.0
CNC[C@H]1Oc2ccc(NC(=O)Cc3ccccc3)cc2C(=O)N([C@@H](C)CO)C[C@@H]1C	-0.7
CCCCc1ccc2nc(NC(=O)OC)[nH]c2c1	-2.5

Additional compounds:
Every second line gives: BJeLR viab HTS | A1 inh
CC(C)(C)c1ccc(C(=O)Nc2ccc(NC(=O)c3ccccc3F)cc2)cc1
    2.5 | -0.2
O=c1cc(CSc2cccc3cccnc23)c2ccc(O)cc2o1
    4.0 | -0.2
CC(C)CN(CC(C)C)C(=O)COc1ccc(C(C)(C)C)cc1
    9.6 | -0.2
FC(F)(F)c1ccc(-c2csc(-c3ccc(-c4csnn4)cc3)n2)cc1
    -1.7 | 0.3
Cc1ccc(S(=O)(=O)NCC(O)Cn2c3ccccc3c3ccccc32)cc1 (stereo not drawn)
    17.5 | 0.3
O=C1NCCN1CCNC(=S)Nc1cc(C(F)(F)F)cc(C(F)(F)F)c1
    1.9 | 0.1
COc1ccc(S(=O)(=O)Nc2cccc3c2O[C@@H](CN(C)S(=O)(=O)c2cccs2)[C@@H](C)CN([C@@H](C)CO)C3=O)cc1
    0.7 | nt
C[C@H]1CN([C@@H](C)CO)C(=O)c2cccc(NC(=O)c3cnccn3)c2O[C@H]1CN(C)Cc1ccc(-c2ccccc2)cc1
    0.1 | nt
C[C@H]1CN([C@@H](C)CO)C(=O)c2cccc(NS(=O)(=O)c3cccs3)c2O[C@H]1CN(C)S(=O)(=O)c1ccc(F)cc1
    -1.3 | nt
COc1ccc(-c2oc3ncn(CC(C)C)c(=N)c3c2-c2ccc(OC)cc2)cc1
    2.5 | -0.5
C[C@@H]1CN([C@@H](C)CO)C(=O)c2cc(NC(=O)C3CCCCC3)ccc2O[C@H]1CN(C)S(=O)(=O)c1ccc(F)cc1
    1.0 | 0.4
COc1ccc(S(=O)(=O)Nc2cccc3c2O[C@H](CN(C)S(=O)(=O)c2ccc(F)cc2)[C@H](C)CN([C@@H](C)CO)C3=O)cc1
    2.7 | nt
Cc1noc(C)c1NC(=O)N(C)C[C@H]1Oc2c(NC(=O)Nc3ccc(C(F)(F)F)cc3)cccc2C(=O)N([C@@H](C)CO)C[C@@H]1C
    7.5 | nt
C=CCN(c1ccccc1)C(C(=O)Nc1ccc2c(c1)OCCO2)c1ccccc1 (stereo not drawn)
    3.8 | nt
CC(C)NC(=O)N(C)C[C@H]1Oc2ccc(NC(=O)C3CCCCC3)cc2C(=O)N([C@@H](C)CO)C[C@@H]1C
    -0.1 | 0.2
Cc1noc(C)c1NC(=O)N(C)C[C@@H]1Oc2c(NS(C)(=O)=O)cccc2C(=O)N([C@H](C)CO)C[C@H]1C
    -10.2 | nt
C[C@@H]1CN([C@H](C)CO)C(=O)c2cccc(N(C)C)c2O[C@@H]1CN(C)C(=O)Nc1ccc2c(c1)OCO2
    -1.5 | nt
C[C@@H]1CN([C@H](C)CO)C(=O)c2cccc(NS(=O)(=O)c3cn(C)cn3)c2O[C@H]1CN(C)S(=O)(=O)c1cn(C)cn1
    4.3 | nt
CCCc1cc(=S)sc(N)n1
    -3.0 | 0.1
Cn1nc2c3ccccc3n(Cc3ccccc3)c2nc1=S
    4.9 | -0.5
CNC[C@@H]1Oc2ccc(NS(=O)(=O)c3cccs3)cc2C(=O)N([C@H](C)CO)C[C@H]1C
    5.7 | 0.1
C[C@H]1CN([C@@H](C)CO)C(=O)c2cc(NS(=O)(=O)c3ccccc3)ccc2O[C@@H]1CN(C)Cc1ccncc1
    0.0 | 0.0
C[C@H]1CN([C@@H](C)CO)C(=O)c2cccc(NC(=O)Nc3ccc4c(c3)OCO4)c2O[C@@H]1CN(C)Cc1ccncc1
    1.5 | nt
CCOC(=O)c1c(CN2CCCCC2)n(-c2ccccc2)c2cc(Br)c(OC)cc12
    -7.4 | 0.2
C[C@@H]1CN([C@@H](C)CO)C(=O)c2cccc(NC(=O)Nc3ccc(F)cc3)c2O[C@H]1CN(C)S(=O)(=O)c1ccc(Cl)cc1
    -8.0 | nt
C[C@@H]1CN([C@H](C)CO)C(=O)c2cc(NC(=O)Nc3ccccc3)ccc2O[C@H]1CN(C)C
    -2.4 | 0.5
Cc1cccc(-n2c(C)nc3cc(C(=O)NCCN4CCOCC4)ccc32)c1
    -1.1 | 0.1
CCC[C@@H](O)[C@H](O)[C@@H]1CC(OC)=CC(=O)O1
    -9.4 | 0.5
C=C1CC[C@@H]2[C@](C)(CO)[C@H](O)CC[C@@]2(C)[C@@H]1CC(O)C1=CCOC1=O (stereo partly drawn)
    -0.6 | 0.2
Oc1c(Cl)cc(Cl)cc1C1Nc2cc(C(F)(F)F)ccc2-n2cccc21 (stereo not drawn)
    25.9 | -0.6
COc1ccc(NC(=O)N(C)C[C@H]2Oc3ccc(NC(=O)C4CC4)cc3C(=O)N([C@@H](C)CO)C[C@H]2C)cc1
    0.6 | -0.3
CC(C)NC(=O)N(C)C[C@H]1Oc2c(cccc2N(C)C)C(=O)N([C@@H](C)CO)C[C@@H]1C
    -0.7 | nt
CS(=O)(=O)NCC(c1cccnc1)N1CCN(Cc2ccccc2)CC1 (stereo not drawn)
    2.1 | -0.8
COc1ccc(C(=O)NCCC2=CCCCC2)cc1
    4.4 | -6.1
C[C@H](CO)N1C[C@H](C)[C@@H](CN(C)Cc2ccccc2)Oc2c(NS(=O)(=O)c3cn(C)cn3)cccc2C1=O
    -3.6 | nt
COC(=O)c1c(N)n(CCc2ccccc2)c2nc3ccccc3nc12
    3.2 | -0.5
COc1ccc(NC(=O)N(C)C[C@@H]2Oc3c(NS(=O)(=O)c4cccs4)cccc3C(=O)N([C@@H](C)CO)C[C@H]2C)cc1
    4.1 | nt
C[C@H](CO)N1C[C@H](C)[C@@H](CN(C)C(=O)Nc2cccc3ccccc23)Oc2ccc(NS(=O)(=O)c3ccc(F)cc3)cc2C1=O
    -1.8 | 0.5
CCCN(CCC)CCc1cccc2c1CC(=O)N2
    -4.9 | 0.2
O=C(Nc1cccs1)N1CCN(C(=O)C2CCCO2)CC1 (stereo not drawn)
    -4.3 | 0.0
Cc1ccc2c(c1)-c1c(ssc1=Nc1ccc(S(N)(=O)=O)cc1)C(C)(C)N2
    1.9 | nt
C[C@@H]1CN([C@@H](C)CO)C(=O)c2cc(NS(=O)(=O)c3ccc(F)cc3)ccc2O[C@@H]1CN(C)C(=O)NC1CCCCC1
    -0.4 | 0.3
Cc1ccc(C23CC4CC(CC(C(=O)NC5=NCCS5)(C4)C2)C3)cc1
    4.2 | -0.8
Cc1ncc([N+](=O)[O-])n1CC(O)CCl (stereo not drawn)
    -3.2 | 0.1
C[C@@H]1CN([C@H](C)CO)C(=O)c2cc(NC(=O)CCCN(C)C)ccc2O[C@@H]1CN(C)S(=O)(=O)c1ccc(F)cc1
    -0.1 | 0.7
CC(C)NC(=O)Nc1cccc2c1O[C@H](CN(C)S(=O)(=O)c1ccccc1)[C@@H](C)CN([C@@H](C)CO)C2=O
    0.0 | nt
Oc1ccccc1Oc1c(F)c(F)nc(N2CCCC2)c1F
    -1.2 | 0.6
C[C@@H]1CN([C@H](C)CO)C(=O)c2cc(NS(=O)(=O)c3cn(C)cn3)ccc2O[C@H]1CN(C)CC1CC1
    -0.5 | 0.8
C[C@@H]1CN([C@H](C)CO)C(=O)c2cc(NS(=O)(=O)c3ccc(F)cc3)ccc2O[C@@H]1CN(C)C(=O)Nc1ccc2c(c1)OCO2
    1.1 | -0.6
C[C@@H]1CN([C@H](C)CO)C(=O)c2cccc(NC(=O)c3ccncc3)c2O[C@@H]1CN(C)S(=O)(=O)c1ccc(F)cc1
    -0.4 | nt
CCC/C=C/C=C/C1CC(O)C(O)C1C(=O)O (stereo not drawn)
    1.3 | 0.5
Cc1ccc(S(=O)(=O)N(CCc2ccccc2)CC(=O)Nc2ccc(C(C)C)cc2)cc1
    4.9 | 0.1
Cc1ccc(S(=O)(=O)N(C)C[C@@H]2Oc3ccc(NC(=O)Nc4ccc5c(c4)OCO5)cc3C(=O)N([C@H](C)CO)C[C@H]2C)cc1
    -0.6 | 0.3
COc1ccc([C@@H]2Oc3c(OC)cc(CCCO)cc3[C@H]2CO)cc1OC
    -2.5 | -0.7
COC(=O)c1cc(O)cc(OC)c1Oc1cc(C)cc(O)c1C(=O)OC
    -3.8 | 0.5
Cc1cc(=O)oc2c(CN3CCCCC3)c(O)ccc12
    0.0 | -0.6
C=CCNC(=O)N1CC(Oc2ccc(Cl)cc2)C1
    0.5 | 0.0
Cc1ccc(S(=O)(=O)Nc2ccc3c(c2)C(=O)N([C@@H](C)CO)C[C@@H](C)[C@H](CN(C)Cc2ccc(C(=O)Nc4ccccc4N)cc2)O3)cc1
    -0.1 | nt

As a working copy, some entries already given.
Every second line gives: BJeLR viab HTS | A1 inh
C=CCNC(=O)N1CC(Oc2ccc(Cl)cc2)C1
    0.5 | 0.0
Cc1ccc(S(=O)(=O)Nc2ccc3c(c2)C(=O)N([C@@H](C)CO)C[C@@H](C)[C@H](CN(C)Cc2ccc(C(=O)Nc4ccccc4N)cc2)O3)cc1
    -0.1 | nt

Some of the compounds tested (hit frequency here may not be typical).
